Source: PubChem (several laboratories)
Rce1 inhib – yeast Rce1p protease inhibitors, primary screen, biochemical, fluorescence, cell-free homogeneous; yeast membranes, quenched prenylated peptide cleavage fluorescence; calls only; 0.27% of 290,000 active; AID 2563, 2010;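 active = fall in fluorescence gain of 50% or more versus controls, with final raw signal at or below 3038400; inconclusive = same 50% fall but final raw signal above 3038400; inactive = fall in fluorescence gain under 50%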;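 note: plate controls were neutral control wells for no effect and wells lacking membranes for full effect; tested at 10 µM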
Target sequence (Q03530 whole entry, looked up): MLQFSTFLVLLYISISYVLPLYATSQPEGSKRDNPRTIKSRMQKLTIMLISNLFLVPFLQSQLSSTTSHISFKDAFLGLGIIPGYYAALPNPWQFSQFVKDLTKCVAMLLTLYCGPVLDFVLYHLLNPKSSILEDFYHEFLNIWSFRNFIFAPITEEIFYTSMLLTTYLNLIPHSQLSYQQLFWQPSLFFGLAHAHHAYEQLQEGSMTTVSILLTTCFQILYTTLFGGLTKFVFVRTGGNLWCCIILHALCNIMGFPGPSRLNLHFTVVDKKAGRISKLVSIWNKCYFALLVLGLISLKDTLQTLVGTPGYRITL
UUG fidelity – modulators of yeast start codon fidelity, primary screen, whole organism, S. cerevisiae, single point, plate reader; S. cerevisiae UUG-firefly luciferase reporter, luminescence/redox ratio; activity score, % at 18.7 µM; 0.13% of 350,000 active; AID 602363, 2012;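 active = replicate mean at a twofold rise or more, about +100% in these data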;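 note: firefly luciferase made from a UUG start codon reports start codon fidelity; reporter light over untreated wells divided by growth signal over untreated wells; some hits fall short of that in this replicate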
MT1-MMP act inh – blockers of MT1-MMP proenzyme processing, primary screen, HT1080 RFP-PRO-GFP cells, GFP/RFP fluorescence | GFP/RFP ratio change, % at 20 µM | GFP/RFP ratio fluorescence, overnight; percent of plate control window, DMSO zero | 0.061% of 360,000 active | Matrix metalloproteinase-14 (Homo sapiens), P50281;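 active = GFP/RFP ratio change of at least 30% with cell ATP level not reduced by more than half and red fluorescence within 50% of control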; note: strong numbers were not always called active
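Assay system: HT1080 RFP-PRO-GFP cells. Benchmarks: DMSO vehicle wells and RFP-L50D-GFP reporter cell wells. Times: overnight cell settling, then overnight compound exposure, 37 °C, 5% CO2. Compound: 20 µM single dose, 1% DMSO. Read-out basis: GFP/RFP fluorescence ratio.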
PABP FP inh – PABP poly(A) RNA binding inhibitors, primary screen, biochemical, fluorescence polarization, uHTS | Polyadenylate-binding protein 1 (Homo sapiens), P11940 | inhibition, % at 35 µM | 1% of 290,000 active | AID 2014, 2009;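 active = 50% or more with normal probe brightness, or confirmed in later tests; inconclusive = above 50% with abnormal brightness, or retests that disagree; inactive = below 50% or failed in later tests; about a fifth of its hits are not listed in these tables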;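 note: calls also rest on retests at 20 µM and on dose response follow-up; controls were probe without protein and protein plus probe with vehicle; some compounds called inactive have numbers as strong as hits; many hits fall short of the cut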
Target sequence (P11940 whole entry, looked up): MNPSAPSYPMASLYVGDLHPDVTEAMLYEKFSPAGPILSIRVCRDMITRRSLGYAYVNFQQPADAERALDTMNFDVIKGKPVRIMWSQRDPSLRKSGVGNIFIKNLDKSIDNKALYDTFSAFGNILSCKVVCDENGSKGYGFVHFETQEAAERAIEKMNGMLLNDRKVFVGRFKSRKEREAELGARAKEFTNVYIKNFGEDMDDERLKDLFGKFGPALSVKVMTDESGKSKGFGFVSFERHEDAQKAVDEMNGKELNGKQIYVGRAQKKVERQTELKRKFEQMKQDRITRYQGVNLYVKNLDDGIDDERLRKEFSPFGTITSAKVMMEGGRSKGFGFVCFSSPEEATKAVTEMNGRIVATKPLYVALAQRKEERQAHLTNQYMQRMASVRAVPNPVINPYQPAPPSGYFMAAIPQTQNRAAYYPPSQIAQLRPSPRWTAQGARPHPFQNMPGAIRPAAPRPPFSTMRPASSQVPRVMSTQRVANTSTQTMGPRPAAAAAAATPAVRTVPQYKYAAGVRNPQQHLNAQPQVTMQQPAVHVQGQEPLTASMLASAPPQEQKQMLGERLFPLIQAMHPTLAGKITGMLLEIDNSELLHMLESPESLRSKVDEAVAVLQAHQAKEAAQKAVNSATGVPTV
eIF4H inh – human eIF4H binding inhibitors, primary screen, translation initiation inhibitor project, biochemical, uHTS, fluorescence polarization; Eukaryotic translation initiation factor 4H (Homo sapiens), Q15056; eIF4H fluorescence polarization binding assay; inhibition, % at 35 µM; 0.94% of 290,000 active; AID 2012, 2009;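 active = 50% or more with normal probe brightness, or confirmed in later tests; inconclusive = above 50% with abnormal brightness, or retests that disagree; inactive = below 50% or failed in later tests; about a fifth of its hits are not listed in these tables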;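 note: calls also rest on retests at 20 µM and on dose response follow-up; 0% = protein and probe with vehicle and 100% = probe without protein; strong numbers were not always called active; many hits fall short of the cut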
HIV Env fusion – inhibitors of HIV-1 Env-driven cell-cell fusion, primary screen, HeLa-JRFL effector, CEM21 target cells, luciferase | 1.1% of 360,000 active | inhibition, % at 12.3 µM;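 active = mean replicate inhibition score of at least 50 and every replicate individually at or above 50; inconclusive = only one of the two criteria met; inactive = mean below 50 and not all replicates reaching 50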;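 note: 0% = plate neutral controls and 100% = maraviroc near 300 nM; one replicate is shown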
CSC inhib – cancer stem cell viability inhibitors, primary screen, luminescence; cancer stem cell-like cells viability; inhibition, % at 7.5 µM; 1.1% of 300,000 active; AID 2717, 2010;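 active = mean at 75% or more and at least half the replicates too; inconclusive = mean and replicates disagree; tested in HMLE shEcad cells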;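 note: 0% = median of negative and 100% = median of positive control wells; the first replicate is given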
eIF4H inh retest – also measured in eIF4H inh; calls as there; inhibition, %; compound at 20 µM; confirmation average;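 mean of two retest wells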
PABP FP inh retest – second read-out of PABP FP inh, no call of its own (marks repeat the call); inhibition, %; compound at 20 µM; confirmation repeats;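 mean of two retest wells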
MT1-MMP act inh RFP – recorded beside MT1-MMP act inh, whose call it bears; RFP signal change, %; measured here: RFP expression control read;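 0 = vehicle wells; hits needed this value within 50% of zero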
* = called active by the depositor; i = inactive; u = inconclusive; x = not tested or not shown. Only part of the results is shown. The share of hits here may be higher or lower than overall.

SMILES	Rce1 inhib	UUG fidelity	MT1-MMP act inh	MT1-MMP act inh RFP	PABP FP inh	eIF4H inh	HIV Env fusion	CSC inhib	others
CN1C(=O)SC(Nc2ccccc2C(=O)O)C1=O (stereo not given)	i	x	-7	2	20	3	-26	4
CC1CCCN(C(=O)CNC(=O)c2sc3ccccc3c2Cl)C1 (stereo not given)	x	-11	-1	0	x	x	7	x
C/C(N)=C(/C#N)C(=O)CSc1nc2scc(-c3ccc(F)cc3)c2c(=O)n1C	i	x	-5	-6	7	-3	17	10
O=C(Nc1ccc(Br)cc1)c1ccc(N2C(=O)C3CC=CCC3C2=O)cc1 (stereo not given)	i	x	2	1	-2	-2	19	2
COc1ccc(S(=O)(=O)N2CCCCC2)cc1NC(=O)c1ccco1	i	-10	4	2	-9	6	18	14
O=C(Nc1nc2ccc([N+](=O)[O-])cc2s1)c1ccc(S(=O)(=O)N2CCCc3ccccc32)cc1	i	x	-32	-39	-9	-15	x	65
COc1ccc(C(=O)OCC(=O)Nc2sccc2C(N)=O)cc1OC	i	-11	1	-3	22	7	16	-5
Cc1cc(-n2c(C)cc(C(=O)CSc3nnc4sc5ccccc5n34)c2C)no1	i	x	4	2	-6	-6	x	-19
CCOC1(c2ccccc2)CC1C(=O)N/N=C/c1cccc([N+](=O)[O-])c1 (stereo not given)	i	x	1	-3	2	-3	18	5
CCCCCOC(=O)C1=C(C)N(C)C(=O)NC1c1cc(Br)c(O)c(OC)c1 (stereo not given)	i	10	-3	-6	-9	3	x	24

Structures shown so far containing two or more sulfur atoms, in the order listed:
SMILES	Rce1 inhib	UUG fidelity	MT1-MMP act inh	MT1-MMP act inh RFP	PABP FP inh	eIF4H inh	HIV Env fusion	CSC inhib	others
C/C(N)=C(/C#N)C(=O)CSc1nc2scc(-c3ccc(F)cc3)c2c(=O)n1C	i	x	-5	-6	7	-3	17	10
O=C(Nc1nc2ccc([N+](=O)[O-])cc2s1)c1ccc(S(=O)(=O)N2CCCc3ccccc32)cc1	i	x	-32	-39	-9	-15	x	65
Cc1cc(-n2c(C)cc(C(=O)CSc3nnc4sc5ccccc5n34)c2C)no1	i	x	4	2	-6	-6	x	-19

Continued.
SMILES	Rce1 inhib	UUG fidelity	MT1-MMP act inh	MT1-MMP act inh RFP	PABP FP inh	eIF4H inh	HIV Env fusion	CSC inhib	others
CCSc1nc(=S)n(CC)c(C)c1C(C)=O	i	-16	3	4	6	1	-13	x
CN1CCN(C(=O)CCCN2C(=O)/C(=C/c3cccc(Br)c3)SC2=S)CC1	i	-29	3	-2	6	1	-17	x
COC(=O)c1c(C(=O)OC)c(-c2ccccc2)n2c1CS(=O)(=O)C2	i	-16	3	4	0	-1	x	-4
O=C(NNC1CC(=O)N(c2ccc(Br)cc2)C1=O)c1ccccn1 (stereo not given)	i	-23	-1	1	-4	6	17	-14
COc1cccc(NS(=O)(=O)c2ccc(OC)c(OC)c2)c1	i	-5	3	-4	-3	-10	-5	-17
Cc1c(NC(=O)c2cnn3c(C(F)(F)F)cc(-c4ccco4)nc23)c(=O)n(-c2ccccc2)n1C	i	8	2	6	-8	-5	x	1
COc1cccc(OC)c1C(=O)Nc1cccc(-c2ccc3nncn3n2)c1	i	9	9	5	5	-6	1	-18
CSCCC(NS(=O)(=O)c1ccccc1F)C(=O)NC(C)c1ccccc1 (stereo not given)	i	x	-2	2	-11	22	-4	-11
CC(C)C(OC(=O)CN1C(=O)COc2ccccc21)C(=O)NC1CCCCC1 (stereo not given)	i	-8	0	2	-5	-3	34	-4
CCCOC(=O)C(=O)NNc1ccccc1	i	x	0	6	-12	-9	3	u

Of the compounds above, 6 have four or more nitrogen atoms:
SMILES	Rce1 inhib	UUG fidelity	MT1-MMP act inh	MT1-MMP act inh RFP	PABP FP inh	eIF4H inh	HIV Env fusion	CSC inhib	others
C/C(N)=C(/C#N)C(=O)CSc1nc2scc(-c3ccc(F)cc3)c2c(=O)n1C	i	x	-5	-6	7	-3	17	10
O=C(Nc1nc2ccc([N+](=O)[O-])cc2s1)c1ccc(S(=O)(=O)N2CCCc3ccccc32)cc1	i	x	-32	-39	-9	-15	x	65
Cc1cc(-n2c(C)cc(C(=O)CSc3nnc4sc5ccccc5n34)c2C)no1	i	x	4	2	-6	-6	x	-19
O=C(NNC1CC(=O)N(c2ccc(Br)cc2)C1=O)c1ccccn1 (stereo not given)	i	-23	-1	1	-4	6	17	-14
Cc1c(NC(=O)c2cnn3c(C(F)(F)F)cc(-c4ccco4)nc23)c(=O)n(-c2ccccc2)n1C	i	8	2	6	-8	-5	x	1
COc1cccc(OC)c1C(=O)Nc1cccc(-c2ccc3nncn3n2)c1	i	9	9	5	5	-6	1	-18

Continued.
SMILES	Rce1 inhib	UUG fidelity	MT1-MMP act inh	MT1-MMP act inh RFP	PABP FP inh	eIF4H inh	HIV Env fusion	CSC inhib	others
COC(=O)c1ccc(NC(=O)c2ccccc2CC[N+](=O)[O-])cc1	i	-19	-4	7	-3	6	5	13
Cc1c(C(=O)N(C)Cc2nc3ccccc3c(=O)[nH]2)oc2ccccc12	x	-6	1	-6	x	x	x	46
Cc1ccc(S(=O)(=O)Nc2cc(C)cn(Cc3ccccc3)c2=O)cc1	i	-5	0	-1	-5	-2	17	7
CCCCOc1ccc(/C=C/C(=O)OCC(=O)NC2CCS(=O)(=O)C2)cc1OCC (stereo not given)	i	x	-1	3	x	x	-3	-3
O=[N+]([O-])c1cccc(C(=S)N2CCCC2)c1	i	x	3	3	-7	-13	2	-5
O=C(COc1coc(CN2CCN(c3ccccc3F)CC2)cc1=O)NC1CCCCC1	i	-16	0	-10	x	x	1	-11
Cc1ccccc1C(=O)N1CCN(c2ccc([N+](=O)[O-])c(NCc3cccnc3)c2)CC1	i	-21	-2	-6	-1	-6	20	-3
CCOc1cc(S(=O)(=O)N2CCN=C2Cc2ccccc2)ccc1F	i	-16	0	-2	-2	19	-158	11
CC(NC(=O)CNC(=O)c1cccs1)c1cccc(C(F)(F)F)c1 (stereo not given)	x	-12	3	3	x	x	x	-18
CC(Oc1ccc2ccc(=O)oc2c1)C(=O)NC(Cc1c[nH]c2ccc(O)cc12)C(=O)O (stereo not given)	x	-13	1	5	45	87*	x	-4	eIF4H inh retest=80*;PABP FP inh retest=27
CCN(C(=O)COc1ccc(C)nc1[N+](=O)[O-])C1CCS(=O)(=O)C1 (stereo not given)	i	x	-3	6	-3	31	-15	-11
COc1cc(C(=O)NC(C)CCc2ccccc2)cc(OC)c1OC (stereo not given)	i	-7	5	5	-6	-7	7	0
O=C(CSc1ncn[nH]1)Nc1ccc(Cl)c(Cl)c1	x	-9	2	6	-5	-3	x	-17
Cc1cc(Cl)nc(Cl)c1C(=O)N1CCOCC1	i	-11	-1	2	-4	6	-7	-5
NS(=O)(=O)c1ccc(NCc2ccccc2OCc2ccccc2F)cc1	i	-10	-7	-12	0	-4	x	-1
Cc1cc(Oc2ccccc2)nc(-c2ccccc2)n1	i	-11	0	-2	3	-10	-38	7
CC(=O)Nc1ccc(NC(=O)C2C3CCC(C3)C2C(=O)O)cc1 (stereo not given)	i	7	1	0	-9	-6	1	-3
CC(C)Nc1ncnc2c1cnn2Cc1ccccc1Cl	i	-11	-3	-2	5	-2	11	-5
CSc1ccc(S(=O)(=O)NCCSc2ccccn2)cc1	i	-7	-3	2	-4	2	x	x
O=C(Cn1cnc2c(NCc3ccccc3)ncnc21)NCc1ccccn1	x	-17	6	3	x	x	18	x
O=C(CN(c1ccc(Cl)cc1)S(=O)(=O)c1ccc(Cl)c([N+](=O)[O-])c1)NCCc1ccc(F)cc1	i	-23	-6	-7	30	1	-9	82*
Cn1c(SCc2nc3ccccc3s2)nnc1-c1ccc2c(c1)OCO2	i	-20	4	3	-3	-3	x	-11
COc1ccc(C2CCCN2C(=S)Nc2cccc(C)c2C)cc1OC (stereo not given)	i	-31	5	-3	4	16	18	3
Cc1ccc(C(=O)NNC(=O)CCC(=O)NCc2ccccc2)cc1Br	i	-4	1	5	-12	-15	-31	-3
COC(=O)c1cc(NC(=O)c2ccccc2)c(=O)oc1C	i	x	-1	5	-3	3	-11	3
Cn1c(=O)[nH]c(=O)c2c1nc(CN1CCOCC1)n2CCCO	i	-11	4	2	-5	-9	x	1
NC1=NC(=O)C(Cc2ccccc2)S1 (stereo not given)	i	-25	1	4	0	3	7	-27
CCOC(=O)Cn1c(N)c(C(=O)OC)sc1=S	i	-25	2	3	-7	-7	x	-4
C=C1[C@H](C)CN[C@H]1CCO	x	-29	2	5	x	x	-66	x
Cc1ccc2nc(-c3ccc(Br)o3)oc(=O)c2c1	i	-5	3	-2	1	1	9	-2
O=C(/C=C/c1cccs1)NCc1cccs1	i	-4	3	0	x	x	-24	-3
CCN(CC)S(=O)(=O)c1ccc(OC)c(NC(=S)Nc2cc(C)ccc2C)c1	i	x	x	x	-1	-2	x	7
CCOC(=O)c1cc(NC(=O)N(C)C2CCCCC2)c(C)nc1C	i	-11	-2	-4	8	7	-7	3
Cc1ccc(Oc2ncccc2C(=O)NC2CCSC2=O)cc1 (stereo not given)	i	x	-3	1	12	2	2	-9
Cn1c(=NC(=O)C2CCCCC2)sc2cc([N+](=O)[O-])ccc21	i	x	1	8	23	-2	10	4
O=C(c1ccc(F)cc1F)N1CCCC(c2nc(-c3cccs3)no2)C1 (stereo not given)	i	-8	7	-3	-2	-17	8	x
COc1ccc(OC)c(CCNC(=O)Cn2ccc3cc(S(=O)(=O)N4CCCC4)ccc32)c1	i	-19	6	-1	-4	0	u	-21
CCOC(=O)c1ccc(NC(=O)c2ncn3c2C(=O)NC[C@@H]3C)cc1	x	-14	0	-6	x	x	u	x
O=C(Nc1nnc(-c2ccco2)o1)C1CC1	i	3	3	-1	-8	-5	-9	-3
COCCCNc1ncnc2nc[nH]c12	i	4	-5	3	0	11	8	2
C=CCOc1ccc(CNc2ccc(NC(=O)CC(C)C)cc2)cc1OC	i	x	-3	2	54	4	27	-9	eIF4H inh retest=0;PABP FP inh retest=4
CC1=NN(C(N)=S)C(=O)C1N=Nc1ccccc1C (stereo not given)	i	-25	6	-2	-4	2	x	5
CCOC(=O)c1ccc(NC(=O)c2nc(S(=O)(=O)Cc3ccccc3)ncc2Cl)cc1	i	17	2	3	-11	-11	u	103*
O=C(COC(=O)/C=C/c1ccc([N+](=O)[O-])cc1)NCc1ccccc1	i	x	-5	-1	-5	-11	-3	-12
Cc1ccc(C)c(-c2nnc(NC(=O)c3ccc([N+](=O)[O-])o3)o2)c1	i	-16	1	-18	x	x	x	12
